Assay outcomes from PubChem.
Env fusion inh: HIV envelope-mediated fusion inhibition; HeLa-JRFL Env/CEM21 cell fusion, luciferase; inhibition, % at 12.3 µM; 1.1% of 360,000 active; AID 651610;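 active = mean replicate inhibition score of at least 50 and every replicate individually at or above 50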;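 also: 0% = plate neutral controls and 100% = maraviroc near 300 nM; one replicate is shown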
Yeast UUG start: modulators of start codon recognition fidelity in yeast; S. cerevisiae UUG-firefly luciferase reporter, luminescence/redox ratio; activity score, % at 18.7 µM; 0.13% of 350,000 active;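 active = replicate mean at a twofold rise or more, about +100% in these data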;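 also: firefly luciferase made from a UUG start codon reports start codon fidelity; reporter light over untreated wells divided by growth signal over untreated wells; some hits fall short of that in this replicate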
Numbers without * were called inactive; [ ] = remark or other dose.

SMILES	Env fusion inh	Yeast UUG start
COc1ccccc1S(=O)(=O)N(C)C[C@@H]1Oc2cc(/C=C/c3ccccc3)ccc2S(=O)(=O)N([C@H](C)CO)C[C@@H]1C	-8[16.7 µM]	-12
O=C(N[C@H]1CC[C@@H](CCNS(=O)(=O)c2ccc(F)cc2)O[C@@H]1CO)C1CCCC1	8[16.7 µM]	3
Cc1ccc(S(=O)(=O)Nc2cccc3c2O[C@@H](CN(C)Cc2ccccc2)[C@@H](C)CN([C@@H](C)CO)C3=O)cc1	-11[16.7 µM]	-7
COC(=O)C[C@@H]1CC[C@@H]2[C@H](COc3ccc(NC(=O)Nc4ccc(Cl)cc4)cc3C(=O)N2C)O1	34[16.7 µM]	10
C[C@@H]1CN([C@H](C)CO)C(=O)c2cc(C3=CCCC3)cnc2O[C@H]1CN(C)C(=O)Nc1ccc(F)cc1	1[16.7 µM]	0
C[C@H](O)C#Cc1ccc2c(c1)O[C@@H](CN(C)C(=O)C1CC1)[C@H](C)CN([C@@H](C)CO)S2(=O)=O	-12[16.7 µM]	-4
C[C@@H]1CN([C@@H](C)CO)C(=O)c2cc(NC(=O)c3ccccc3)ccc2O[C@@H](C)CCCCO[C@H]1CN(C)CC1CCCCC1	63*[16.7 µM]	12
C[C@H]1CN([C@@H](C)CO)C(=O)c2cc(Br)cnc2O[C@@H]1CN(C)C(=O)c1ccc(F)cc1	10[16.7 µM]	13
C[C@@H]1CN([C@@H](C)CO)C(=O)c2cc(NC(=O)Nc3ccccc3)ccc2O[C@@H](C)CCCCO[C@H]1CN(C)C(=O)Cc1ccccc1	36[16.7 µM]	-3
CNC[C@H]1OCCCC[C@H](C)Oc2ccc(NC(=O)NC3CCCCC3)cc2C(=O)N([C@H](C)CO)C[C@@H]1C	13[16.7 µM]	7
CCC(=O)Nc1ccc2c(c1)C(=O)N(C)[C@@H]1CC[C@H](CC(=O)N[C@@H](C)c3ccccc3)O[C@H]1CO2	-10[16.7 µM]	5
C/C=C/c1ccc2c(c1)O[C@H](CN(C)CC1CC1)[C@H](C)CN([C@@H](C)CO)S2(=O)=O	-23[16.7 µM]	-10
Cc1noc(C)c1S(=O)(=O)N(C)C[C@H]1OCCCC[C@H](C)Oc2ccc(NS(C)(=O)=O)cc2C(=O)N([C@@H](C)CO)C[C@@H]1C	-16[16.7 µM]	4
C[C@@H]1CN([C@H](C)CO)C(=O)c2cc(-c3cccc(C#N)c3)cnc2O[C@H]1CN(C)C(=O)C1CC1	-15[16.7 µM]	-6
COc1ccc(NC(=O)Nc2ccc3c(c2)C(=O)N([C@@H](C)CO)C[C@@H](C)[C@@H](CN(C)C(=O)CCC(F)(F)F)OCCCC[C@@H](C)O3)cc1	22[16.7 µM]	-9
CCCc1cn(CC[C@@H]2CC[C@H](NC(=O)CCN3CCCCC3)[C@@H](CO)O2)nn1	-1[16.7 µM]	-14
CN1C(=O)c2cc(NC(=O)Cc3cccs3)ccc2OC[C@H]2O[C@H](CC(=O)O)CC[C@@H]21	-4[16.7 µM]	8
C[C@@H]1CN([C@@H](C)CO)C(=O)c2cc(N(C)C)ccc2O[C@@H](C)CCCCO[C@@H]1CN(C)Cc1ccc(C(F)(F)F)cc1	18[16.7 µM]	0
C[C@@H]1CCCCO[C@H](CN(C)C(=O)C2CCCCC2)[C@@H](C)CN([C@H](C)CO)C(=O)c2cc(NC(=O)C3CCCCC3)ccc2O1	14[16.7 µM]	-2
Cc1cc(C(=O)Nc2cccc3c2O[C@H](CN(C)S(C)(=O)=O)[C@@H](C)CN([C@@H](C)CO)C3=O)n(C)n1	-6[16.7 µM]	-1
C[C@@H]1CN([C@H](C)CO)S(=O)(=O)c2ccc(Br)cc2O[C@H]1CN(C)S(=O)(=O)c1ccc(F)cc1	20[16.7 µM]	0
C[C@@H]1CN([C@@H](C)CO)C(=O)c2cc(NC(=O)CCN3CCOCC3)ccc2O[C@H]1CN(C)S(C)(=O)=O	-2[16.7 µM]	-9
C[C@@H]1CN([C@H](C)CO)C(=O)c2cc(NC(=O)CCC(F)(F)F)ccc2O[C@@H](C)CCCCO[C@H]1CN(C)C(=O)C1CCCCC1	-4[16.7 µM]	26
COc1ccc(NC(=O)Nc2ccc3c(c2)C(=O)N([C@@H](C)CO)C[C@@H](C)[C@H](CN(C)C(=O)C2CCCCC2)OCCCC[C@@H](C)O3)cc1	1[16.7 µM]	-6

Full records, quoted from the list. Order of values: Env fusion inh, Yeast UUG start
Entry for C[C@@H]1CCCCO[C@H](CN(C)C(=O)C2CCCCC2)[C@@H](C)CN([C@H](C)CO)C(=O)c2cc(NC(=O)C3CCCCC3)ccc2O1 : 14[16.7 µM], -2
Entry for C/C=C/c1ccc2c(c1)O[C@H](CN(C)CC1CC1)[C@H](C)CN([C@@H](C)CO)S2(=O)=O : -23[16.7 µM], -10
Entry for CN1C(=O)c2cc(NC(=O)Cc3cccs3)ccc2OC[C@H]2O[C@H](CC(=O)O)CC[C@@H]21 : -4[16.7 µM], 8

As entered above:
Cc1cc(C(=O)Nc2cccc3c2O[C@H](CN(C)S(C)(=O)=O)[C@@H](C)CN([C@@H](C)CO)C3=O)n(C)n1 in Env fusion inh shows -6[16.7 µM]
COc1ccc(NC(=O)Nc2ccc3c(c2)C(=O)N([C@@H](C)CO)C[C@@H](C)[C@@H](CN(C)C(=O)CCC(F)(F)F)OCCCC[C@@H](C)O3)cc1 in Env fusion inh shows 22[16.7 µM]
CCCc1cn(CC[C@@H]2CC[C@H](NC(=O)CCN3CCCCC3)[C@@H](CO)O2)nn1 in Env fusion inh shows -1[16.7 µM]

Exported in CSV form: part of the list above.
structure,Env fusion inh,Yeast UUG start
C[C@@H]1CN([C@@H](C)CO)C(=O)c2cc(N(C)C)ccc2O[C@@H](C)CCCCO[C@@H]1CN(C)Cc1ccc(C(F)(F)F)cc1,18[16.7 µM],0
Cc1noc(C)c1S(=O)(=O)N(C)C[C@H]1OCCCC[C@H](C)Oc2ccc(NS(C)(=O)=O)cc2C(=O)N([C@@H](C)CO)C[C@@H]1C,-16[16.7 µM],4
C[C@@H]1CN([C@H](C)CO)C(=O)c2cc(-c3cccc(C#N)c3)cnc2O[C@H]1CN(C)C(=O)C1CC1,-15[16.7 µM],-6

Carrying on.
SMILES	Env fusion inh	Yeast UUG start
C[C@H](CO)N1C[C@H](C)[C@@H](CN(C)Cc2ccncc2)OCCCC[C@H](C)Oc2ccc(NS(=O)(=O)c3ccc(F)cc3)cc2C1=O	-13[16.7 µM]	-4
Cc1noc(C)c1NC(=O)N(C)C[C@@H]1Oc2ccc(NS(=O)(=O)c3ccc(Cl)cc3)cc2CC(=O)N([C@H](C)CO)C[C@H]1C	13[16.7 µM]	14
C[C@@H]1CCCCO[C@H](CN(C)Cc2ccncc2)[C@@H](C)CN([C@H](C)CO)C(=O)c2cc(NS(C)(=O)=O)ccc2O1	4[16.7 µM]	-13
C[C@@H]1CN([C@H](C)CO)C(=O)c2cccc(NC(=O)NC3CCCCC3)c2O[C@@H]1CN(C)CC1CC1	1[16.7 µM]	8
Cc1noc(C)c1S(=O)(=O)N(C)C[C@H]1Oc2ccc(NS(=O)(=O)c3cn(C)cn3)cc2CC(=O)N([C@H](C)CO)C[C@H]1C	-8[16.7 µM]	-7
Cc1ccccc1S(=O)(=O)N1[C@H](C#N)[C@H](c2ccc(-c3ccccc3)cc2)[C@H]1CO	0[16.7 µM]	-9
Cc1noc(C)c1NC(=O)N(C)C[C@@H]1Oc2ccc(NS(=O)(=O)c3c(C)noc3C)cc2CC(=O)N([C@@H](C)CO)C[C@@H]1C	3[16.7 µM]	-11
C[C@H](CO)N1C[C@H](C)[C@@H](CN(C)C(=O)NC2CCCCC2)OCCCC[C@H](C)Oc2ccc(NC(=O)Nc3cccc4ccccc34)cc2C1=O	-7[16.7 µM]	-7
O=C(NCC[C@H]1CC[C@@H](NC(=O)C2CCCCC2)[C@@H](CO)O1)Nc1ccc(Cl)cc1	-23[16.7 µM]	28
O=C(C[C@@H]1C[C@@H]2c3cc(NS(=O)(=O)c4ccc(F)cc4)ccc3O[C@@H]2[C@@H](CO)O1)NCc1cccc(F)c1	13[16.7 µM]	18
Cc1ccc(S(=O)(=O)N(C)C[C@@H]2Oc3c(NS(C)(=O)=O)cccc3C(=O)N([C@@H](C)CO)C[C@H]2C)cc1	-4[16.7 µM]	-4
Cc1noc(C)c1S(=O)(=O)Nc1cccc2c1O[C@H](CN(C)Cc1ccccc1)[C@H](C)CN([C@H](C)CO)C2=O	11[16.7 µM]	-12
CC(C)NC(=O)N[C@H]1C=C[C@H](CC(=O)O)O[C@@H]1CO	4[16.7 µM]	-2
COc1ccc(NC(=O)Nc2ccc3c(c2)C(=O)N([C@@H](C)CO)C[C@@H](C)[C@@H](CN(C)S(=O)(=O)c2cccs2)OCCCC[C@@H](C)O3)cc1	9[16.7 µM]	-7
Cc1cc(C(=O)Nc2ccc3c(c2)C(=O)N(C)[C@H]2CC[C@@H](CC(=O)N[C@@H](C)c4ccccc4)O[C@@H]2CO3)no1	-2[16.7 µM]	11
C[C@@H]1CN([C@H](C)CO)C(=O)c2cc(NC(=O)CCN3CCOCC3)ccc2O[C@@H]1CN(C)C(=O)Nc1cccc2ccccc12	6[16.7 µM]	12
Cc1noc(C)c1S(=O)(=O)Nc1ccc2c(c1)CC(=O)N([C@@H](C)CO)C[C@@H](C)[C@H](CN(C)S(=O)(=O)c1cccs1)O2	-17[16.7 µM]	21
O=C(N[C@H]1CC[C@@H](CCNS(=O)(=O)c2ccccc2Cl)O[C@H]1CO)c1ccccc1	-34[16.7 µM]	-6
CN(C)CCCNC(=O)C[C@@H]1CC[C@@H]2[C@@H](COc3ccc(NC(=O)c4ccc5c(c4)OCO5)cc3C(=O)N2C)O1	-5[16.7 µM]	6
C[C@@H]1CN([C@H](C)CO)S(=O)(=O)c2ccc(-c3ccc(F)cc3)cc2O[C@@H]1CN(C)Cc1cccc(F)c1	42[16.7 µM]	1
COc1ccc(CN(C)C[C@@H]2Oc3c(NS(=O)(=O)c4ccc(OC)cc4)cccc3C(=O)N([C@H](C)CO)C[C@H]2C)cc1	-13[16.7 µM]	11
C[C@@H]1CN([C@@H](C)CO)C(=O)c2cc(N(C)C)ccc2O[C@@H]1CN(C)Cc1ccc(Cl)c(Cl)c1	31[16.7 µM]	10
COc1ccccc1-c1ccc([C@@H]2[C@@H](C#N)N(C(=O)C3CCOCC3)[C@H]2CO)cc1	10[16.7 µM]	1
C[C@@H]1CN([C@H](C)CO)C(=O)c2cc(NS(C)(=O)=O)ccc2O[C@@H](C)CCCCO[C@H]1CN(C)S(=O)(=O)c1ccc(F)cc1	-1[16.7 µM]	12
Cc1noc(C)c1S(=O)(=O)N(C)C[C@H]1OCCCC[C@H](C)Oc2ccc(NS(=O)(=O)c3ccc(F)cc3)cc2C(=O)N([C@H](C)CO)C[C@@H]1C	3[16.7 µM]	14
CCC(=O)Nc1ccc2c(c1)C(=O)N(C)[C@H]1CC[C@H](CC(=O)NCCc3ccccc3)O[C@@H]1CO2	0[16.7 µM]	20
C[C@@H]1CN([C@H](C)CO)C(=O)c2cc(C#CC3(O)CCCC3)cnc2O[C@@H]1CN(C)S(C)(=O)=O	-3[16.7 µM]	-13
Cc1noc(C)c1NC(=O)N(C)C[C@H]1Oc2ccc(N(C)C)cc2CC(=O)N([C@H](C)CO)C[C@@H]1C	-9[16.7 µM]	-10
Cc1ccc(S(=O)(=O)N(C)C[C@H]2Oc3ccc(NC(=O)Nc4ccc(C(F)(F)F)cc4)cc3CC(=O)N([C@H](C)CO)C[C@H]2C)cc1	37[16.7 µM]	6
CCC(=O)N(C)C[C@H]1Oc2cc(C#CC3CCCC3)ccc2S(=O)(=O)N([C@H](C)CO)C[C@@H]1C	1[16.7 µM]	-3
CNC[C@H]1Oc2c(NC(=O)c3cnccn3)cccc2C(=O)N([C@@H](C)CO)C[C@H]1C	-17[16.7 µM]	10
O=C(C[C@@H]1CC[C@H](NC(=O)c2cccnc2)[C@@H](CO)O1)NCc1ccncn1	-109[16.7 µM]	-7
COc1cccc(S(=O)(=O)N2C[C@@H](O)COC[C@@H]3O[C@H](CC(=O)N4CCN(c5ccccc5)CC4)CC[C@H]32)c1	-4[16.7 µM]	10
CCCC#Cc1ccc2c(c1)O[C@H](CN(C)C(=O)Nc1ccc(OC)cc1)[C@H](C)CN([C@@H](C)CO)S2(=O)=O	-61[16.7 µM]	3
C[C@H](CO)N1C[C@H](C)[C@@H](CN(C)C(=O)Nc2cccc3ccccc23)Oc2ccc(NC(=O)C3CC3)cc2CC1=O	40[16.7 µM]	1
C[C@H](CO)N1C[C@H](C)[C@@H](CN(C)Cc2ccccc2)OCCCC[C@H](C)Oc2ccc(NS(=O)(=O)c3cccs3)cc2C1=O	-39[16.7 µM]	5
C[C@@H]1CN([C@H](C)CO)C(=O)c2cc(C#Cc3ccccc3)cnc2O[C@@H]1CN(C)C(=O)c1ccccc1	25[16.7 µM]	16
CC(C)C#Cc1ccc2c(c1)O[C@H](CN(C)C(=O)C1CC1)[C@H](C)CN([C@H](C)CO)S2(=O)=O	11[16.7 µM]	4
Cc1noc(C)c1S(=O)(=O)Nc1ccc2c(c1)CC(=O)N([C@@H](C)CO)C[C@H](C)[C@H](CN(C)S(=O)(=O)c1ccccc1)O2	15[16.7 µM]	22
Cc1ccc(S(=O)(=O)N(C)C[C@H]2Oc3ncc(C#CC4(O)CCCC4)cc3C(=O)N([C@H](C)CO)C[C@H]2C)cc1	-12[16.7 µM]	14
O=S(=O)(N[C@@H]1CCCN(Cc2ccc(OCCO)cc2)C1)c1ccc(-c2ccccc2)cc1	-17[16.7 µM]	4
C[C@@H]1CCCCO[C@@H](CN(C)C(=O)c2ccncc2)[C@@H](C)CN([C@@H](C)CO)C(=O)c2cc(NS(=O)(=O)c3cn(C)cn3)ccc2O1	-7[16.7 µM]	-2
O=C(C[C@@H]1C=C[C@H](NC(=O)C2CCC2)[C@H](CO)O1)NC1CCC1	6[16.7 µM]	-6
Cc1ccc(S(=O)(=O)N[C@@H]2CC[C@H](CCn3cc(C4CCCCC4)nn3)O[C@@H]2CO)cc1	-11[16.7 µM]	-2
C[C@@H]1CCCCO[C@@H](CN(C)S(=O)(=O)c2cn(C)cn2)[C@H](C)CN([C@@H](C)CO)C(=O)c2cc(NC(=O)Nc3ccccc3)ccc2O1	-19[16.7 µM]	6

This is a subset; the hit share may differ from the screen's.
